Assay outcomes as filed in PubChem.
PKD1 kinase inh = inhibitors of human PKD1 kinase, biochemical, fluorescence polarization | inhibition, %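 (about 10 µM by stock and volumes)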 | Serine/threonine-protein kinase D1 (Homo sapiens), Q15139 | PKD1 kinase fluorescence polarization assay | hit rate 0.056% among 200,000;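 active = inhibition of 50% or more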;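 also: controls were vehicle for no effect and a reference inhibitor for full effect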
RGS16-Gao HTS = modulators of RGS16 binding to Galphao, primary screen, biochemical, human proteins, multiplexed bead flow cytometry; Regulator of G-protein signaling 16 (Homo sapiens) + Guanine nucleotide-binding protein …; bead-based flow cytometry RGS16-Galphao binding, fluorescence; actives lie on both sides; binding response (% of control), % at 10 µM; hit rate 0.38% among 220,000;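 active = below 25% or above 175%, edge rows of some plates excepted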;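 also: Galphao activated by GDP with aluminum fluoride before binding; 100% = wells without compound and 0% = beads without RGS; some results beyond the cut were filed as inactive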
Target sequence (O15492 whole entry, looked up): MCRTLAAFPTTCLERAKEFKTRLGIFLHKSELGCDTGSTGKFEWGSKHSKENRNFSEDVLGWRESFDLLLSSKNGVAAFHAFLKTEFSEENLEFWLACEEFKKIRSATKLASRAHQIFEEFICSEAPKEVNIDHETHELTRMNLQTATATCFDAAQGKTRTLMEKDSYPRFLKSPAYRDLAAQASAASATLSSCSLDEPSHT
Target sequence (P09471 whole entry, looked up): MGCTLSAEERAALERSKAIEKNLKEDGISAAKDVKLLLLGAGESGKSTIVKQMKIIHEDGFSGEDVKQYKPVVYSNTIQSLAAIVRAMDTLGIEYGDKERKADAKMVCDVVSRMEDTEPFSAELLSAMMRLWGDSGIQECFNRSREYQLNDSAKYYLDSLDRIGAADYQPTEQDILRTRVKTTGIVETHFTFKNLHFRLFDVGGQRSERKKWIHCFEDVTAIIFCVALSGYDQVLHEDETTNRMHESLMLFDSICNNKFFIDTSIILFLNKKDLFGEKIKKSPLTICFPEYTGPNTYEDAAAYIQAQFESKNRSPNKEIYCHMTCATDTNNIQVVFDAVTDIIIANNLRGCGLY
GALR2 ag = GALR2 receptor agonists, primary screen, cell-based; GALR2-expressing cells, agonist activation read-out; activation, %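 (tested at 5 µM)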; hit rate 0.48% among 140,000;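 active = above mean plus 3 SD of all compounds, about 5% in these data, not always enough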;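 also: 0% = vehicle buffer wells and 100% = reference agonist at full effect; tested in CHO reporter cells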
Target sequence (O43603 whole entry, looked up): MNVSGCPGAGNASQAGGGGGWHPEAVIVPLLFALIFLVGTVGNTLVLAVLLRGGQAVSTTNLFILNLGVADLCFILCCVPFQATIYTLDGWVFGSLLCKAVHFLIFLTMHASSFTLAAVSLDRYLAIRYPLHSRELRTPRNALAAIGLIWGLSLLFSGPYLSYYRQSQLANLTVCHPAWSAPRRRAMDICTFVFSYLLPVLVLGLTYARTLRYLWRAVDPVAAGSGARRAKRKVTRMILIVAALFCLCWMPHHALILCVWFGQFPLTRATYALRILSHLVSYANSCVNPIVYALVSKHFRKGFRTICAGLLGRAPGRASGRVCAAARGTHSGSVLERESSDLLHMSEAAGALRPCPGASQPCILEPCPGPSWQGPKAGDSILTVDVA
INS promoter inh = inhibitors of insulin promoter-driven GFP, primary screen, imaging, TRM-6 cells (human fetal islet line), eGFP reporter, cell count; reporter expression induced with tamoxifen; inhibition, % at 2 µM; hit rate 0.9% among 130,000; AID 1273, 2008;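 active = inhibition above the mean plus 3 SD, with well images judged a real hit on visual review, cut at about 60% in these data, passing the limit was not always enough; inconclusive = inhibition over the cutoff but images rejected on review; inactive = inhibition not above the cutoff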
HSV replic up = enhancers of HSV replication in host cells, fold increase, host cell viability; HSV replication augmentation in cells; hit rate 0.005% among 220,000; AID 1956, 2009; maximum fold increase;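 active = peak rise of 1.5-fold or more in the series; inconclusive = self-fluorescent or not available for retest; tested in PC3 cells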;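 also: first round at 10 µM; read as green reporter fluorescence; hits show the peak of a series up to 25 µM; 1 = signal of infected wells without compound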
INS promoter inh cell count = also measured in INS promoter inh; calls as there; normalized cell count, %; measured here: cell count, toxicity; reference of the scale not given here;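 cells exposed to compound for 48 h; stained nuclei by imaging scaled within each plate; lower means fewer cells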
HSV replic up primary fold = also measured in HSV replic up; calls as there; fold increase; compound at 10 µM; measured here: primary screen fold increase 10 uM; tested in PC3 cells;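 GFP signal in the first replicate; 1 = infected wells without compound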
* marks the source's active call; other numbers are inactive results; i = inactive; ? = inconclusive; / = no result given.

SMILES | PKD1 kinase inh | RGS16-Gao HTS | GALR2 ag | INS promoter inh | INS promoter inh cell count | HSV replic up | HSV replic up primary fold
O=C(NNc1nc2ccccc2s1)c1ccc(F)cc1 | 7.3 | 36.3 | -0.5 | 27.6 | 85.3 | i | 1.01
ONC(=Nc1ccc(Cl)cc1)c1ccccc1 | -6.9 | 100.7 | -1.6 | / | / | i | 0.92
O=C(CSc1ccccn1)Nc1ccc2ccccc2c1 | 0.0 | 102.8 | / | -150.0 | 72.1 | i | 0.84
COCCNC(=O)c1cnn2c(C(F)F)cc(-c3ccc(C)cc3)nc12 | -1.8 | 100.0 | / | -35.0 | 95.1 | i | 0.92
Cc1ccc(C2=CSC3=NS(=O)(=O)CCN23)cc1C | -10.7 | 103.5 | -3.2 | -16.7 | 147.6 | i | 0.99
COc1ccc(C(=O)CSc2n[nH]c(=O)[nH]c2=O)cc1 | 5.6 | 95.2 | / | / | / | i | 0.94
CN(C)C(CNS(=O)(=O)c1ccc(Br)cc1)c1cccnc1 (centres undefined) | 0.7 | 101.8 | -0.5 | 60.5 | 94.4 | i | 0.76
O=C(OCC(=O)N1CCN(C(=O)c2ccco2)CC1)c1cc(=O)c2ccccc2o1 | -3.0 | 100.8 | -0.5 | 27.8 | 55.1 | i | 0.95
CC(C)(C)C(=O)NC(=S)NCc1ccccc1 | 4.3 | 103.7 | -0.4 | -14.7 | 91.3 | i | 1.1
Cc1cccc(OCCSc2nc(N)cc(N)n2)c1 | / | 128.7 | / | / | / | i | 0.88
CC1(C)CC(=O)c2cc(OCC(=O)NCC3CCCO3)ccc2O1 (centres undefined) | 9.9 | 100.2 | -2.4 | / | / | i | 0.94
CCCCc1nnc(NC(=O)C(C)Sc2nc(C)cc(=O)[nH]2)s1 (centres undefined) | -6.0 | 91.3 | -1.1 | -34.2 | 73.0 | ? | /
C#CC[N+](C)(C)CCCCCCCCCC | 6.5 | 16.6 | -0.5 | 38.2 | 64.9 | i | 0.78
O=C(C[n+]1ccc2ccccc2c1)c1ccccc1 | / | 94.5 | / | / | / | i | 1.04
CCN(CC)S(=O)(=O)c1ccc(C(=O)Nc2ccc(Cc3ccncc3)cc2)cc1 | 0.8 | 98.5 | / | 6.7 | 109.9 | i | 0.93
COc1cc(/C=C/c2[nH]c(=O)[nH]c(=O)c2[N+](=O)[O-])ccc1OCCC(C)C | 0.7 | 109.0 | / | 33.3 | 101.1 | i | 1.01
Cc1cc(C)c(Cn2c(=O)n(CCCC(=O)NCc3ccco3)c(=O)c3sccc32)c(C)c1 | -9.7 | 106.0 | -0.3 | 12.9 | 88.8 | i | 0.7
COc1cc2c(cc1NC(=O)c1cccc(Br)c1)CCCC2 | -5.8 | 99.1 | -2.4 | 16.7 | 134.1 | / | /
CCOC(=O)C1=C(C)NC(=O)NC1c1cn(-c2ccccc2)nc1-c1cccs1 (centres undefined) | -5.4 | 98.3 | -0.3 | / | / | i | 0.88
CCOCCCNS(=O)(=O)c1ccc(NC(=O)c2ccc(OC)c([N+](=O)[O-])c2)cc1 | -3.9 | 98.2 | / | 28.6 | 75.3 | i | 0.84
CC(C)(C)NCC1(CO)SC(N)=NC1=O (centres undefined) | -1.0 | 133.2 | -2.7 | -15.2 | 99.0 | i | 1
CC(C)NS(=O)(=O)c1ccc(CCC(=O)N2CCCC2)cc1 | 5.7 | 114.3 | / | / | / | i | 1.01
CC(C)OCCCNCc1cccs1 | -0.6 | 118.5 | -1.2 | 14.3 | 188.2 | i | 0.907
Cc1ccc(Sc2c(C)nn(C(=O)C3CC3)c2C)cc1 | 4.7 | 105.2 | -0.7 | -21.9 | 99.1 | i | 1.03
O=C(c1cnc(N2CCN(c3ccccn3)CC2)c2ccccc12)N1CCN(c2cccc(Cl)c2)CC1 | -0.9 | 95.8 | / | -170.0 | 116.9 | i | 0.86

New compounds follow:
SMILES | PKD1 kinase inh | RGS16-Gao HTS | GALR2 ag | INS promoter inh | INS promoter inh cell count | HSV replic up | HSV replic up primary fold
CCN(CC)CCCNC(=O)C1c2cc(OC)c(OC)cc2C(=O)N(C)C1c1cccnc1 (centres undefined) | -3.5 | 93.5 | / | -6.7 | 89.7 | i | 0.88
O=S1(=O)CC2N=C(N(Cc3c(F)cccc3Cl)c3ccccc3F)SC2C1 (centres undefined) | -6.8 | 11.1* | -0.5 | / | / | i | 0.92
CN(C)c1ccc(-c2cc([C@H]3[C@@H]4C=CCC[C@@]4(C)C(=O)N3Cc3ccccc3)ccc2F)cc1 | / | 82.4 | / | / | / | i | 0.78
COc1cccc(CNC(=O)CN2C(=O)CSc3ccc(S(=O)(=O)N4CCCC4)cc32)c1 | -6.0 | 100.5 | / | / | / | i | 1.01
COc1ccc(-c2ncnc(C(F)(F)F)c2-c2csc(C)n2)c(O)c1 | / | 104.5 | / | / | / | i | 1.21
COc1ccc(CCNC(=O)c2cnc3ccccn3c2=O)cc1 | -2.5 | 107.2 | -0.6 | 17.1 | 130.0 | i | 0.97
Cn1ncc(C#N)c1NC(=O)C1CC(c2ccccc2Cl)=NO1 (centres undefined) | / | 107.3 | / | / | / | i | 0.97
COc1ccc(C(O)Cn2c(=N)n(CCCN(C)C)c3ccccc32)cc1 (centres undefined) | -3.4 | 104.6 | -0.6 | 3.7 | 90.1 | i | 0.84
CCCC(=O)Nc1nnc(SCC)s1 | -10.5 | 101.3 | 0.0 | / | / | i | 1.09
COc1ccc(OC)c(-n2nnnc2SCC(=O)NCc2ccc3c(c2)OCO3)c1 | 3.6 | 98.5 | 0.7 | -21.1 | 172.2 | i | 1.32
Cc1cccc(Cn2nc(C)cc2NC(=O)CCCn2ccc([N+](=O)[O-])n2)c1 | -4.3 | 100.3 | / | / | / | i | 0.95
CC1=NN(c2ccccc2)C(=O)/C1=C\C=C1/N(C)c2ccccc2C1(C)C | -3.1 | 103.8 | -1.4 | / | / | i | 1.26
CN1CCN(c2ccc(CNS(=O)(=O)c3ccccc3)cc2)CC1 | / | 97.0 | / | / | / | i | 1.05
O=C1Cc2ccccc2C(=O)N1Cc1ccccc1 | -1.2 | 102.8 | -3.3 | 20.8 | 118.3 | i | 0.98
O=C(CCCC(=O)n1cnc2ccccc21)n1cnc2ccccc21 | 1.6 | 97.5 | 1.1 | 9.7 | 65.3 | i | 0.93
COc1ccc(NC(=O)CN2C(=O)C(C)SC(C)C2=O)c(OC)c1 (centres undefined) | -1.1 | 107.0 | -0.4 | / | / | i | 1.14
COc1ccc(N2C(=O)C(CC(N)=O)N(NC(=O)CCc3ccccc3)C2=O)cc1 (centres undefined) | -8.6 | 108.3 | / | / | / | i | 0.95
Cc1ccc(Cl)c(OCC(=O)NCc2ccco2)c1 | 3.3 | 105.2 | -1.9 | 25.0 | 104.9 | i | 1.01
CCCOc1ccc(-c2csc(N)n2)cc1[N+](=O)[O-] | -12.4 | 96.4 | -1.2 | / | / | i | 0.84
Nc1ccc(Br)cc1Br | / | 99.9 | / | / | / | i | 0.99
COc1ccc(-n2c(CN3CCN(c4ccccn4)CC3)nc3ccc([N+](=O)[O-])cc3c2=O)c(OC)c1 | 3.7 | 100.6 | / | / | / | i | 0.86
N#Cc1c(N)nc(SCC(=O)C23CC4CC(CC(C4)C2)C3)c(C#N)c1-c1ccc(Cl)cc1 | 4.0 | 96.9 | -2.4 | -5.7 | 126.5 | i | 0.71
COc1ccc(C2CC(=O)C(C=NCCO)=C(O)C2)cc1OC (centres undefined) | -7.4 | 103.8 | 0.8 | -5.3 | 225.6 | i | 1.01
C(=N\c1nccs1)/c1cccnc1 | 4.8 | 99.3 | -2.8 | -245.8 | 71.9 | i | 0.94
c1ccc2c(c1)c1c3n2CCNC3CCC1 (centres undefined) | 2.6 | 97.5 | -3.5 | 10.3 | 120.7 | i | 0.84

Ordered by value in PKD1 kinase inh (falling): some entries from above
molecule	PKD1 kinase inh	RGS16-Gao HTS	GALR2 ag	HSV replic up primary fold
c1ccc2c(c1)c1c3n2CCNC3CCC1 (centres undefined)	2.6	97.5	-3.5	0.84
COc1ccc(NC(=O)CN2C(=O)C(C)SC(C)C2=O)c(OC)c1 (centres undefined)	-1.1	107.0	-0.4	1.14
CCN(CC)CCCNC(=O)C1c2cc(OC)c(OC)cc2C(=O)N(C)C1c1cccnc1 (centres undefined)	-3.5	93.5	/	0.88
Cc1cccc(Cn2nc(C)cc2NC(=O)CCCn2ccc([N+](=O)[O-])n2)c1	-4.3	100.3	/	0.95
CCCOc1ccc(-c2csc(N)n2)cc1[N+](=O)[O-]	-12.4	96.4	-1.2	0.84

Two of these compounds in a different format:
| SMILES | PKD1 kinase inh | RGS16-Gao HTS | GALR2 ag | INS promoter inh | INS promoter inh cell count | HSV replic up | HSV replic up primary fold |
| --- | --- | --- | --- | --- | --- | --- | --- |
| CCN(CC)CCCNC(=O)C1c2cc(OC)c(OC)cc2C(=O)N(C)C1c1cccnc1 (centres undefined) | -3.5 | 93.5 | / | -6.7 | 89.7 | i | 0.88 |
| O=S1(=O)CC2N=C(N(Cc3c(F)cccc3Cl)c3ccccc3F)SC2C1 (centres undefined) | -6.8 | 11.1* | -0.5 | / | / | i | 0.92 |

Next entries:
SMILES | PKD1 kinase inh | RGS16-Gao HTS | GALR2 ag | INS promoter inh | INS promoter inh cell count | HSV replic up | HSV replic up primary fold
c1cncc(-c2nc3ccccc3o2)c1 | -7.8 | 75.7 | -1.5 | 50.0 | 130.9 | ? | /
COc1cc(C(=O)N2CCN(c3ccccc3OC)CC2)c([N+](=O)[O-])cc1OC | 6.7 | 96.7 | / | -35.3 | 89.3 | i | 0.99
CCOC(=O)CNC(=O)c1cn(CC(C)C)c(=O)c2cc(OC)c(OC)cc12 | -5.6 | 99.1 | 1.0 | 0.0 | 80.7 | i | 1.03
Cc1cc(C)n(-c2nc3c(c(=O)n(C)c(=O)n3C)n2CCO)n1 | 8.4 | 100.7 | / | / | / | i | 1
Cc1nn2c(=O)c(NC(=O)c3ccc(Cl)cc3)cnc2s1 | -5.1 | 97.3 | / | / | / | i | 1.01
CN(Cc1cn(Cc2ccccc2)nc1-c1ccc2c(c1)OCO2)Cc1nccn1C | 0.7 | 99.0 | / | / | / | i | 0.97
Cc1nn(C)c(C)c1CN(C)C(=O)C1c2ccccc2Oc2ccccc21 | -5.9 | 104.9 | -1.2 | -28.6 | 138.5 | i | 0.87
Cc1c(NC(=O)C(C)Sc2ccc3ccccc3n2)c(=O)n(-c2ccccc2)n1C (centres undefined) | -3.4 | 100.5 | -1.2 | 31.4 | 119.6 | i | 0.92
COc1ccc(NC(=S)N2CCN(c3ncccn3)CC2)cc1 | 0.0 | 100.8 | / | / | / | i | 0.94
Oc1ccc2oc3c(c2c1/C=N/n1cnnc1)CCCC3 | 43.1 | 122.4 | -2.1 | -30.3 | 93.5 | i | 0.88
N#CCC(=O)Nc1ccc(C(=O)Nc2cccnc2)cc1 | / | 103.6 | / | / | / | i | 0.93
COCCNC(=O)C/C(C)=N/NC(=O)C(=O)NC1CCCCC1 | -2.6 | 112.0 | / | 40.0 | 106.5 | i | 1.01
CC(=O)c1cnn(-c2ccccc2)c1C | -8.4 | 114.9 | / | 36.4 | 109.2 | i | 0.95
COc1cc(C(=O)Nc2ccc([N+](=O)[O-])cn2)cc(OC)c1OC | -2.8 | 120.0 | -1.1 | 39.5 | 52.2 | i | 0.88
CCOc1ccc(C(=O)NCC2OCCc3ccccc32)cc1 (centres undefined) | 2.0 | 71.3 | 0.0 | -47.6 | 110.8 | i | 0.97
Cn1c(=O)oc2cc(S(=O)(=O)NCc3ccncc3)ccc21 | 1.2 | 92.8 | -2.9 | -11.1 | 106.7 | i | 1.02
Cc1cc(C)nc(SCC(=O)Nc2ncc3c(n2)CC(C)(C)CC3=O)n1 | -3.6 | 97.4 | -1.2 | 15.6 | 107.1 | i | 0.75
Cc1cccc(N2C(=O)/C(=C/c3ccccn3)SC2=S)c1 | / | 119.3 | / | / | / | i | 0.74
COc1cc(-c2nn3c(-c4ccccn4)nnc3s2)cc(OC)c1OC | -7.2 | 101.2 | -0.5 | / | / | i | 0.96
CCCCCc1nc2c(c(=O)c3ccccc3n2C)c(=O)n1Cc1ccc(OC)cc1 | / | 92.4 | / | / | / | i | 0.96
CNC(=S)N1CCc2cc(OC)c(OC)cc2C1COc1ccc(F)cc1 (centres undefined) | 5.0 | 99.9 | / | / | / | i | 1.03
Cc1nnsc1C(=O)N1CCN(c2cc(C(F)(F)F)ccn2)CC1 | / | 101.2 | / | / | / | i | 1
O=C(NCC1CCCO1)c1onc(CSc2ccccc2F)c1C(=O)O (centres undefined) | -15.0 | 85.8 | -1.4 | 13.5 | 99.1 | i | 0.86

Not a hit list. About 1.3% of those tested had a hit in this group.
